AID504770 = growth inhibition of E. coli YBA685, primary screen, V. cholerae RctB inhibitors. 130,000 tested, 0.27% active. E. coli YBA685 rctB-dependent plasmid, OD600 growth, 3 h; hits give low values. z-score (concentration not given with the values);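 active = z-score under -2 on both plates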;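 also: wells of about 30 µL received 100 nL stock; score is relative to mean and SD of the test wells; the first replicate is given; strong numbers were not always called active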
CapD inh = Bacillus anthracis CapD inhibitors, primary screen, biochemical, fluorescence intensity | z-score (concentration not given with the values) | 140,000 tested, 0.23% active | AID 492967, 2010 | CapD gamma-glutamyltranspeptidase (Bacillus anthracis Ames Ancestor) | purified CapD enzyme, fluorescence intensity read-out; hits give low values; some hits fall short of the stated cut;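 active = z-score under -4 in either of two replicates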;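 also: stock transfer was 100 nL into about 40 µL; score is relative to mean and spread of the plate; one replicate is shown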
The depositor's hits bear a star; / = not tested or not shown.

SMILES | AID504770 | CapD inh
CCOC(=O)/C(C#N)=C/Nc1nc(C)cs1 | -0.7 | /
CSc1cccc(NC(=S)Nc2cc3c(c(N)c2C)C(C)(C)CC3(C)C)c1 | -0.7 | 0.25
Cc1cc2ccccc2n1-c1ccc(C(=O)N2CCC(C(=O)N3CCN(C)CC3)CC2)s1 | 0.15 | -0.39
COc1ccccc1OCC(O)CNCc1ccc2c(c1)OCO2 (stereo not given) | -0.8 | 0.39
O=C(COC(=O)C1CCCCC1)Nc1ccc(I)cc1 | -0.25 | -0.22
CCCCN(c1ccccc1)S(=O)(=O)c1cccc2cccnc12 | -0.8 | 0.015
CCCN(CC(=O)Nc1cc(C)on1)CC(=O)Nc1ccc(F)c(F)c1F | 0.25 | /
CCn1c2ccccc2n2c(SCc3nc4ccccc4[nH]3)nnc12 | -0.85 | -0.47
O=C(CSc1nc2ccccc2c(=O)n1CC1CCC(C(=O)NCC2CCCO2)CC1)NCc1ccco1 (stereo not given) | / | -0.48
O=C(Nc1ccc2c(c1)nc1n2CCN(c2ccccc2)C1)c1ccccc1 | -0.35 | 3.5
COC(=O)C1=CN(Cc2ccc(OC)c(OC)c2)C=C(C(=O)OC)C1c1cc(Br)c(OC)c(OC)c1 | / | 59
COc1cc(C2NC(=O)NC(C)=C2C(=O)OCCc2ccccc2)cc(OC)c1OC (stereo not given) | / | -0.005
COc1ccc(Cn2c(CCC(=O)Nc3ccccc3)nc3cccnc32)cc1 | -0.15 | 0.17
CC(C)OC(=O)c1cn(CCC#N)nc1-c1ccccc1 | -0.2 | /
COc1ccc(-c2noc(N3CCCC3)n2)cc1OC | -0.6 | -0.34
O=C(Cc1nnc(-c2ccc(Br)cc2)o1)NC1CCCCCC1 | 0.25 | 0.94
O=C(c1nn2c(C(F)(F)F)cc(-c3ccco3)nc2c1Br)N1CCCCCC1 | / | -0.18
O=C1CSC(=S)N1CC1CC1 | 2.6 | -1.4
COC(=O)Cn1c(=O)c(C(=O)CSc2nnc(C)c(=O)n2N)c(N)n(Cc2ccccc2)c1=O | -0.9 | /
FC(F)(F)c1cccc(Cn2c(-c3ccc(Cl)nc3)nc3ccccc32)c1 | / | 14
O=C(O)COCC(=O)Nc1ccc(N2CCOCC2)nc1N1CCOCC1 | -0.45 | 4.6
C=CCN(C(C)=O)c1nc(C)c(Br)c(OC)n1 | -0.4 | 0.91
COc1ccc(CNc2ccc(C(=O)N3CCCCC3)cc2S(=O)(=O)Nc2cccc(OC)c2)cc1 | / | 1.2
Cc1nnc(SCC(=O)NCc2ccc3c(c2)OCO3)s1 | 0.5 | -0.71
CCC(C(=O)N1CCN(c2ccccn2)CC1)c1ccccc1 (stereo not given) | -0.85 | /
CC(CN(C)Cc1ccccc1)OC(=O)C1COc2ccccc2O1 (stereo not given) | -1 | 0.14
O=C(N=C1N=c2ccccc2=N1)c1ccc2c(O)n(Cc3ccncc3)c(O)c2c1 | -0.15 | /
OC1CCN(Cc2ccc[nH]2)CC1 | -0.85 | 0.33
Cc1noc2ncnc(N3CCCCC3)c12 | -0.45 | -1.5
CC(C)(C)NCC(=O)Nc1ccccc1-c1ccccc1 | 0.2 | /
O=C(Nc1ccccc1)C1Cc2ccccc2CN1S(=O)(=O)c1ccc(F)cc1 (stereo not given) | -0.5 | 0.46
CCOC(=O)CC(=O)N/N=C/c1ccnc2ccccc12 | / | 5.5
Cc1cccc(OCC(O)Cn2c(=N)n(C)c3ccccc32)c1 (stereo not given) | -0.5 | -1.2
CCOC(=O)CSc1ccccn1 | -0.5 | 0.44
O=C(O)CSc1nc2ccccc2c2nc3ccccc3n12 | -0.05 | /
CC1Cc2ccccc2N1C1=CC(=O)CCC1 (stereo not given) | 0.35 | -5.7*
C(=N\n1cnnc1)/c1ccc(N2CCOCC2)s1 | -0.4 | /
Fc1ccc2nc3c(nc2c1)c1ccccc1n3Cc1cc(Cl)cc2c1OCOC2 | / | 0.74
COc1ccc(-c2cn(-c3ccccc3)c3[n+]2CCS3)cc1 | -0.35 | 73
O=c1[nH]nc(COc2ccccc2)c2nnn(Cc3ccccc3)c12 | 0.2 | 0.34

6 compounds out of the list, arranged by SMILES length, lowest first.
SMILES | AID504770 | CapD inh
OC1CCN(Cc2ccc[nH]2)CC1 | -0.85 | 0.33
Cc1noc2ncnc(N3CCCCC3)c12 | -0.45 | -1.5
C(=N\n1cnnc1)/c1ccc(N2CCOCC2)s1 | -0.4 | /
CC(C)(C)NCC(=O)Nc1ccccc1-c1ccccc1 | 0.2 | /
Cc1nnc(SCC(=O)NCc2ccc3c(c2)OCO3)s1 | 0.5 | -0.71
COc1ccc(-c2cn(-c3ccccc3)c3[n+]2CCS3)cc1 | -0.35 | 73

New compounds follow
SMILES | AID504770 | CapD inh
COCc1nc(-c2ccc(-c3ccc(OC)cc3)nc2OC)no1 | -0.8 | 100
Cc1ccc(S(=O)(=O)NC(=O)OCCn2ncc3ccccc3c2=O)cc1 | -0.95 | -0.4
COc1cc(OC)c2c(c1Cl)O[C@]1(C2=O)C(OC)CC(=O)C[C@H]1C (stereo not given in full) | / | -0.33
CC(=O)N1CC(C)OC1c1ccccc1 (stereo not given) | -0.55 | 0.18
COc1cccc(C=Nc2ccc(-c3nc4ccc(C)cc4o3)cc2)c1O | -0.35 | 38
O=S(=O)(NC1CC1)c1ccc2ccccc2c1 | 0.1 | 0.025
O=C(NCc1cccnc1)c1ccc2c(=O)n(Cc3cccc(Br)c3)c(=S)[nH]c2c1 | / | 0.05
Cc1ccc(NC(=O)c2cnc3sccn3c2=O)cc1 | 1.1 | /
O=S(=O)(NCCc1ccc(Cl)cc1)c1cccc2nsnc12 | / | -0.56
N=c1sc2ccccc2n1-c1ccccc1 | -0.85 | -0.15
CCc1ccccc1NC(=O)CNC1CCCCC1 | 0.8 | /
CN(CC(=O)Nc1ccc2c(c1)CCC2)Cc1cccc(F)c1 | 0.9 | /
COc1ccc(Br)cc1C1Nc2ccc3ccccc3c2C2=C1C(=O)CC(c1ccccc1)C2 (stereo not given) | / | 17
Cc1ccccc1Nc1nc(N)nc(COC(=O)Cn2[nH]c(=O)c3ccccc3c2=O)n1 | -0.65 | /
COc1cccc(OCCOc2cccc(OC)c2)c1 | / | -0.045
CCOc1ccc(N2CCc3c2nc2ccc(Br)cc2c3N)cc1 | 1.2 | 1.7
COc1ccc(C2N(C)C(=O)c3ccccc3S2(=O)=O)cc1 (stereo not given) | -0.05 | 0.01
O=C1NC(c2ccccc2)=N/C1=C\c1ccco1 | 0.95 | -1.2
CN(C1CCCCC1)S(=O)(=O)c1ccc2c(c1)c(=O)c(C(=O)NCCN1CCCC1)cn2C | 1.9 | 0.63
O=[N+]([O-])c1ccc(NCCNS(=O)(=O)c2cc(Cl)cc(Cl)c2)nc1 | / | -2.3
CS(=O)(=N/C=C(\C#N)S(=O)(=O)c1ccccn1)c1ccc(Cl)cc1 (stereo not given) | -0.45 | -0.24
O=C(OCc1cc(=O)n2cc(Br)ccc2n1)C1=COCCO1 | 2.2 | /
O=c1cc(-c2ccccc2)nc(SCc2nc(-c3cccs3)no2)[nH]1 | 0.6 | -0.3
CN(Cc1ccccc1)C(=O)c1nn2c(C(F)(F)F)cc(-c3ccco3)nc2c1Cl | / | -0.71
CCS(=O)(=O)CCSc1nc2ccccc2o1 | 1.8 | -1.1
O=C(C1CCN(c2ccc(-c3cccs3)nn2)CC1)N1CCc2ccccc21 | -1.5 | -0.08
O=C(NC1CCCCC1)c1cc2c(=O)oc3ccccc3c2s1 | -0.65 | 2.4
C=C(C)CSc1n[nH]c(=S)s1 | -0.25 | /
O=C(CSc1ccc2c(c1)OCCO2)NCc1ccco1 | -1 | /
CC(C)c1ccc(C2C3CN(C(C)C)CC=C3C(C#N)=C(N)C2(C#N)C#N)cc1 (stereo not given) | 0.85 | 2
O=C(Nc1ccc2c(c1)OCO2)Nc1cnn(Cc2ccc(Br)cc2)c1 | 2.2 | 0.08
O=C(Cc1ccccc1)OCCN1C(=O)c2cccc3c(N4CCCCC4)ccc(c23)C1=O | / | -0.08
O=c1oc(-c2cc3ccccc3o2)nc2sc3c(c12)CCCC3 | -0.5 | -1.4
CC1=C(C(=O)Nc2ccccc2)C(c2cccc(Br)c2)n2ncnc2N1 (stereo not given) | / | -1
Cc1nn(C)c(-n2ncc(C#N)c2N)c1[N+](=O)[O-] | / | -0.035
CCC(N)Cn1nnn(-c2ccccc2)c1=O (stereo not given) | 1 | -0.7
COc1cccc(-n2c(=S)sc3c(=O)n(-c4ccccc4)c(SCC4OCCO4)nc32)c1 | 0.2 | 0.5
COc1ccccc1C(C1=C(O)COC1=O)c1cc2c(cc1O)OCO2 (stereo not given) | -0.2 | 0.24
C=CCSc1nnc(NC(=O)NC2CCCCC2)s1 | -2.8* | /
CC(=O)Nc1ccc(NC(=O)CN(C)S(=O)(=O)c2ccc3c(c2)CCC(=O)N3)cc1 | -0.85 | 0.4

Looked up above.
Entry of `CC1=C(C(=O)Nc2ccccc2)C(c2cccc(Br)c2)n2ncnc2N1` (stereo not given) in CapD inh: -1
Entry of `O=c1oc(-c2cc3ccccc3o2)nc2sc3c(c12)CCCC3` in AID504770: -0.5
Entry of `COc1cccc(-n2c(=S)sc3c(=O)n(-c4ccccc4)c(SCC4OCCO4)nc32)c1` in AID504770: 0.2
Entry of `O=C(Cc1ccccc1)OCCN1C(=O)c2cccc3c(N4CCCCC4)ccc(c23)C1=O` in CapD inh: -0.08
Entry of `O=C(CSc1ccc2c(c1)OCCO2)NCc1ccco1` in AID504770: -1
Entry of `O=C(Nc1ccc2c(c1)OCO2)Nc1cnn(Cc2ccc(Br)cc2)c1` in AID504770: 2.2

New compounds follow.
SMILES | AID504770 | CapD inh
COC(=O)Cc1cc(=O)[nH]c(/N=C(\N)Nc2cccc(C)c2)n1 | -1.5 | 0.52
CC1(C)Cc2c(c(N3CCNCC3)[nH]c(=S)c2C#N)CO1 | -1.6 | /
C=CCc1ccccc1Oc1cc(F)nc(N)n1 | -0.95 | -0.39
O=C(O)CCN1CCc2ccccc2C1c1ccncc1 (stereo not given) | 0.25 | /
CCc1cccc(NC(=O)C2CCN(Cc3cnn(-c4ccccc4)c3-n3cccc3)CC2)c1 | 1.3 | -0.22
CC(c1ccccc1)n1cnc2c(oc3ccccc32)c1=O (stereo not given) | 0.3 | /
COc1ccc(OC)c(-c2cc(C(=O)N3CCCc4ccccc43)no2)c1 | -0.35 | 1.4
C=CCNc1nc2c(c(=O)[nH]c(=O)n2C)n1C | -0.7 | -0.3
COC(=O)C1=C(C(=O)OC)SC(=C2C(=S)C(C)(C)N(C(=O)c3ccc(Br)cc3)c3c(OC)cccc32)S1 | / | 0.025
COc1ccc(-n2nc(C(=O)Nc3c(F)cc(F)cc3Br)c3ccccc3c2=O)c(OC)c1 | / | 0.05
Cn1c2ccc(Br)cc2c2nc3ccccc3nc21 | / | -0.18
N#Cc1c(N)sn(-c2ccccc2)c1=S | -0.35 | /
CC(=O)N1CCN(c2ccc(NC(=O)COc3ccc(Cl)c(C)c3)cc2)CC1 | -0.05 | /
CN(C)CCNC(=O)Cn1cnc2ccccc2c1=O | -0.35 | /
CCC(C)(C)c1ccc(OCCCCNC(=O)c2cccc(C(=O)NCCCCOc3ccc(C(C)(C)CC)cc3C(C)(C)CC)c2)c(C(C)(C)CC)c1 | / | 0.035
COc1cc(Br)c(C2CC(=O)Nc3ccc4ccccc4c32)cc1OC (stereo not given) | / | 0.34
CC1(C)c2ccccc2N(c2ccccc2)C12C=Cc1cc([N+](=O)[O-])cc(Br)c1O2 (stereo not given) | / | -0.47
NCCSc1cc(C(F)(F)F)nc2ccccc12 | / | 1.5
CCS(=O)(=O)Nc1cccc(C2=NN(S(=O)(=O)CC)C(c3ccccc3)C2)c1 (stereo not given) | -0.2 | -0.75
CCOC(=O)c1cc2c(=O)n3ccccc3nc2n(C(C)C)c1=NC(C)=O | / | -1.3

Entries of single compounds as entered above. Screens in order: AID504770 | CapD inh
Listed for COc1ccc(-n2nc(C(=O)Nc3c(F)cc(F)cc3Br)c3ccccc3c2=O)c(OC)c1 : / | 0.05
Listed for NCCSc1cc(C(F)(F)F)nc2ccccc12 : / | 1.5
Listed for Cn1c2ccc(Br)cc2c2nc3ccccc3nc21 : / | -0.18
Listed for COc1ccc(OC)c(-c2cc(C(=O)N3CCCc4ccccc43)no2)c1 : -0.35 | 1.4
Listed for COc1cc(Br)c(C2CC(=O)Nc3ccc4ccccc4c32)cc1OC (stereo not given) : / | 0.34

(next part)
SMILES | AID504770 | CapD inh
COc1cc(CN2CCC(NS(=O)(=O)c3ccc(Cl)cc3Cl)C2)cc2c1OCO2 (stereo not given) | / | 0.2
CCc1nn2c(=O)c(S(=O)(=O)Nc3ccccc3)c(C)nc2s1 | -0.9 | -0.81
Nc1[nH]c(=O)[nH]c(=O)c1N=Nc1cc(C(=O)O)cc(C(=O)O)c1 | -0.1 | /
Cc1nn(C)c2sc(C(=O)NCCc3ccccn3)cc12 | 0.45 | -0.15

Source: PubChem (ICCB-Longwood Screening Facility, Harvard Medical School)

Hits appear at their usual frequency, and some 0.37% of all compounds hit somewhere here.
